Source: PubChem BioAssay (several laboratories)
GALR2 ag – GALR2 (human) receptor agonism; O43603; GALR2-expressing cells, agonist activation read-out; activation, %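 (tested at 5 µM)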; hit rate 0.48% among 140,000;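 active = above mean plus 3 SD of all compounds, about 5% in these data, not always enough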;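 also: 0% = vehicle buffer wells and 100% = reference agonist at full effect; tested in CHO reporter cells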
Target sequence (O43603 whole entry, looked up): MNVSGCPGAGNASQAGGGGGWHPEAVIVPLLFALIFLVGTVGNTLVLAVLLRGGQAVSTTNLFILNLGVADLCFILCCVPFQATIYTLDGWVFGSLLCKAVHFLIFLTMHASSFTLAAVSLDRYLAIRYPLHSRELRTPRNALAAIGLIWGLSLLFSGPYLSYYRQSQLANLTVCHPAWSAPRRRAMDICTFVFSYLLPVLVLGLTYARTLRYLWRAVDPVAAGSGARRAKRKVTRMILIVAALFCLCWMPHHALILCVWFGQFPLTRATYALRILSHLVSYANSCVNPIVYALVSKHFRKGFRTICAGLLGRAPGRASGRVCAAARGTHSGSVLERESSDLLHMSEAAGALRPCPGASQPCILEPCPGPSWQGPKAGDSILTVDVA
RGS16-Gao – regulators of human RGS16-Galphao interaction; bead-based flow cytometry RGS16-Galphao binding, fluorescence; actives lie on both sides; AID 1441; binding response (% of control), % at 10 µM; hit rate 0.38% among 220,000; O15492+P09471;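 active = below 25% or above 175%, edge rows of some plates excepted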;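 also: Galphao activated by GDP with aluminum fluoride before binding; 100% = wells without compound and 0% = beads without RGS; some results beyond the cut were filed as inactive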
Target sequence (O15492 whole entry, looked up): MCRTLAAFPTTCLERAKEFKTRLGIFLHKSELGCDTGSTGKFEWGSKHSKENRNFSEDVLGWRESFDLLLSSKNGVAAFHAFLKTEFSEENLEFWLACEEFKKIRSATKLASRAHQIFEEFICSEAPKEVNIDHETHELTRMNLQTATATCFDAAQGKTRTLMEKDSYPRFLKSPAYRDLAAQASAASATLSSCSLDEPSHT
Target sequence (P09471 whole entry, looked up): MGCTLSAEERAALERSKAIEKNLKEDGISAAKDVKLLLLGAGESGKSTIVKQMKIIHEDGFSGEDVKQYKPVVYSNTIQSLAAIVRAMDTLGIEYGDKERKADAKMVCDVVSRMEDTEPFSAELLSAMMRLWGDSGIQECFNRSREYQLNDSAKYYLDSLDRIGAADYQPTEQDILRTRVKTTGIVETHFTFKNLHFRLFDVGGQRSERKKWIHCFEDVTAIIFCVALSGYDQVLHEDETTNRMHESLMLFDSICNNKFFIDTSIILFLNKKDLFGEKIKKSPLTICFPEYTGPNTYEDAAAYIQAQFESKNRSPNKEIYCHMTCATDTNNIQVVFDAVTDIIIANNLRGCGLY
PKD1 inh – PKD1 (human) kinase inhibition; PKD1 kinase fluorescence polarization assay; Q15139; hit rate 0.056% among 200,000; inhibition, %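 (about 10 µM by stock and volumes)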;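 active = inhibition of 50% or more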;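 also: controls were vehicle for no effect and a reference inhibitor for full effect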
INS promoter inh – TRM-6 insulin promoter activity inhibition; TRM-6 cells (human fetal islet line), insulin promoter-eGFP reporter, imaging; reporter expression induced with tamoxifen; inhibition, % at 2 µM; hit rate 0.9% among 130,000;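 active = inhibition above the mean plus 3 SD, with well images judged a real hit on visual review, cut at about 60% in these data, passing the limit was not always enough; inconclusive = inhibition over the cutoff but images rejected on review; inactive = inhibition not above the cutoff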
HSV augment – increases HSV replication in cells | hit rate 0.005% among 220,000 | HSV replication augmentation in cells, fold increase | maximum fold increase;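 active = peak rise of 1.5-fold or more in the series; inconclusive = self-fluorescent or not available for retest; tested in PC3 cells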;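 also: first round at 10 µM; read as green reporter fluorescence; hits show the peak of a series up to 25 µM; 1 = signal of infected wells without compound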
INS promoter inh cell count – recorded beside INS promoter inh, whose call it bears; normalized cell count, %; measured here: cell count, toxicity; reference of the scale not given here;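 cells exposed to compound for 48 h; stained nuclei by imaging scaled within each plate; lower means fewer cells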
HSV augment primary fold – recorded beside HSV augment, whose call it bears; fold increase; compound at 10 µM; measured here: primary screen fold increase 10 uM; tested in PC3 cells;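 GFP signal in the first replicate; 1 = infected wells without compound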
The depositor's hits bear a star; i = inactive; ? = inconclusive; / = not tested or not shown.

SMILES	GALR2 ag	RGS16-Gao	PKD1 inh	INS promoter inh	INS promoter inh cell count	HSV augment	HSV augment primary fold
CCOc1ccc(NC(=O)C2CCN(c3nnnn3-c3ccccc3)CC2)cc1	-2.5	/	4.9	58.6	93.3	i	0.99
Cc1ccc(SC[C@H](CC(C)C)N2CCN(C)CCC2=O)cc1	/	100.5	/	/	/	i	0.92
CCCN1CCC(N(C)CCc2ccc(OC)c(OC)c2)CC1	-2.3	94.1	6.6	-127.3	123.4	i	1.2
Cn1cc(CCC(=O)N2CCCC(C(=O)c3cccc4ccccc34)C2)cn1 (configuration not stated)	/	109.9	-7.1	-39.1	38.2	i	1
CC(=O)Nc1cccc(N/C(N)=N/c2nc(C)cc(C)n2)c1	/	105.0	-6.6	/	/	i	0.86
O=C1C2C3C=CC(C4CC34)C2C(=O)N1/N=C/c1ccc(-c2ccc([N+](=O)[O-])cc2)o1 (configuration not stated)	/	100.1	-2.6	/	/	i	1.06
COc1nc(-c2ccccc2)ncc1S(=O)(=O)c1ccccc1	/	95.3	6.8	/	/	i	0.93
CC(=O)Nc1ccc(OCC(=O)NCCc2ccccc2)cc1	/	98.3	0.9	/	/	i	0.9
CSc1cccc(NC(=O)/C=C/c2ccccc2)c1	-3.0	101.8	-5.4	-27.6	118.0	i	0.85
NS(=O)(=O)c1cccc(NC(=O)CSc2nc3ccccc3n2-c2ccccc2)c1	/	104.8	-7.7	/	/	i	0.73
COc1ccc(CC(=O)OCC(=O)Nc2cccnc2Cl)cc1OC	/	103.0	-2.1	-58.8	84.8	i	1.13
O=C(COC(=O)/C=C/c1cccc(F)c1)Nc1ncccn1	/	108.1	/	/	/	i	0.91
Cc1cc(C)c[n+](-c2nc3ccccc3nc2[N-]S(=O)(=O)c2cccs2)c1	-0.7	199.9	1.4	/	/	i	1.14
CN(C)S(=O)(=O)Oc1cccc(C(=O)Nc2ccc(Cl)cc2)c1	-1.0	112.3	-12.9	-40.0	109.5	i	1.01
COc1ccc(C(=O)NNC(=O)c2ccccc2[N+](=O)[O-])cc1[N+](=O)[O-]	/	100.3	-2.2	/	/	i	1.03
CCOC(=O)Cc1c(C)nc2c(-c3ccccc3)c(-c3ccccc3)[nH]n2c1=O	-3.9	100.2	-8.2	8.3	144.7	i	0.87
CCOC(=O)C1CCCN(C(=O)c2cc(Cl)ccc2Cl)C1 (configuration not stated)	-0.6	102.3	-4.3	/	/	i	0.99
CN(C)c1ccc(C2NCC(CCl)O2)cc1 (configuration not stated)	-0.9	102.7	8.3	-20.0	119.8	i	1.01
Cc1cc(-c2n[nH]c(=S)n2/N=C/c2ccc(Cl)c([N+](=O)[O-])c2)n[nH]1	-0.1	107.8	0.3	10.2	73.3	i	0.95
COc1cccc(NC(=O)CN2CCN(c3nc(-c4cccc(OC)c4)cs3)CC2)c1	-2.0	131.3	-14.7	0.0	154.8	i	0.99
Brc1ccc(OCc2cn3ccccc3n2)cc1	/	98.5	-2.0	42.1	107.1	i	1.15
Nn1c(SCC(=O)NCc2ccccc2)nncc1=O	-3.2	98.2	1.5	19.4	119.6	i	0.81
O=[N+]([O-])c1cc2c(cc1/C=N/NS(=O)(=O)c1ccc(Br)cc1)OCO2	/	97.3	-5.6	/	/	i	0.94
Cc1cccc(C)c1NC(=O)N1CCN(c2nc3ccccc3s2)CC1	-3.6	117.2	9.6	-3.3	99.3	i	0.92
CCCCCCNC(=O)CCNS(=O)(=O)c1ccc(C)cc1	/	100.3	-1.3	-28.6	117.7	i	1

14 structures from above, arranged by formula weight, high to low:
SMILES	GALR2 ag	RGS16-Gao	PKD1 inh	INS promoter inh	INS promoter inh cell count	HSV augment	HSV augment primary fold
NS(=O)(=O)c1cccc(NC(=O)CSc2nc3ccccc3n2-c2ccccc2)c1	/	104.8	-7.7	/	/	i	0.73
O=[N+]([O-])c1cc2c(cc1/C=N/NS(=O)(=O)c1ccc(Br)cc1)OCO2	/	97.3	-5.6	/	/	i	0.94
O=C1C2C3C=CC(C4CC34)C2C(=O)N1/N=C/c1ccc(-c2ccc([N+](=O)[O-])cc2)o1 (configuration not stated)	/	100.1	-2.6	/	/	i	1.06
Cc1cc(C)c[n+](-c2nc3ccccc3nc2[N-]S(=O)(=O)c2cccs2)c1	-0.7	199.9	1.4	/	/	i	1.14
Cc1cccc(C)c1NC(=O)N1CCN(c2nc3ccccc3s2)CC1	-3.6	117.2	9.6	-3.3	99.3	i	0.92
Cc1cc(-c2n[nH]c(=S)n2/N=C/c2ccc(Cl)c([N+](=O)[O-])c2)n[nH]1	-0.1	107.8	0.3	10.2	73.3	i	0.95
COc1ccc(C(=O)NNC(=O)c2ccccc2[N+](=O)[O-])cc1[N+](=O)[O-]	/	100.3	-2.2	/	/	i	1.03
CCCCCCNC(=O)CCNS(=O)(=O)c1ccc(C)cc1	/	100.3	-1.3	-28.6	117.7	i	1
CCCN1CCC(N(C)CCc2ccc(OC)c(OC)c2)CC1	-2.3	94.1	6.6	-127.3	123.4	i	1.2
CC(=O)Nc1ccc(OCC(=O)NCCc2ccccc2)cc1	/	98.3	0.9	/	/	i	0.9
Brc1ccc(OCc2cn3ccccc3n2)cc1	/	98.5	-2.0	42.1	107.1	i	1.15
Nn1c(SCC(=O)NCc2ccccc2)nncc1=O	-3.2	98.2	1.5	19.4	119.6	i	0.81
CSc1cccc(NC(=O)/C=C/c2ccccc2)c1	-3.0	101.8	-5.4	-27.6	118.0	i	0.85
CN(C)c1ccc(C2NCC(CCl)O2)cc1 (configuration not stated)	-0.9	102.7	8.3	-20.0	119.8	i	1.01

Continuation.
SMILES	GALR2 ag	RGS16-Gao	PKD1 inh	INS promoter inh	INS promoter inh cell count	HSV augment	HSV augment primary fold
CC(C)N(C(=S)NC1CC2CCC1C2)c1ccccc1 (configuration not stated)	/	83.8	-2.8	26.7	124.8	i	0.92
COC(=O)Cc1csc(Nc2ccccc2Cl)n1	-0.8	110.4	-5.6	/	/	i	1.14
CCc1ccc(NC(=O)CN2C(=O)C(=O)N(Cc3ccccc3)C2=O)cc1	/	96.5	-2.3	/	/	i	0.9
CC(C)C(=O)OCC(=O)Nc1ccc(N=Nc2ccccc2)cc1	-1.0	98.0	-2.1	-21.9	114.5	i	0.82
Cn1c(SCC(=O)NC(C)(C)C)nnc1-c1cccc(NC(=O)c2ccccc2F)c1	-1.6	106.9	-1.3	-46.7	112.0	i	1.14
CN(CCOc1ccc(-c2ccn(S(=O)(=O)c3cccc4ccccc34)n2)cc1)c1ccccn1	-4.3	100.1	-14.5	-40.0	153.7	i	1.1
CCOC(=O)C1=NN(c2ccccc2)C(=O)C1	/	100.3	/	/	/	i	0.97
Clc1ccc(-c2nnn(Cc3nc4ccccc4s3)n2)cc1	-1.2	101.1	4.7	61.5	100.7	i	1.2
Cc1ccc(NC(=O)CSc2nc(NS(=O)(=O)c3ccccc3)cc(=O)[nH]2)cc1	-0.3	93.5	-3.3	-19.4	142.7	i	0.92
CC(C)(C)c1cc2nc(N)nc(N)n2n1	/	98.4	/	/	/	i	1.05
c1ccc2sc(SN3CCOCC3)nc2c1	-2.2	103.9	-8.1	/	/	i	0.98
COC(=O)C(N)Cc1ccc(OC)c([N+](=O)[O-])c1 (configuration not stated)	/	97.9	/	/	/	i	1.07
O=C(Nc1cc(Cl)cc(Cl)c1)C(NCCO)c1ccccc1 (configuration not stated)	-0.9	99.2	4.1	60.5	82.4	i	0.95
Nc1cc(=O)[nH]c(=O)n1CC1CC1	-1.6	76.6	10.2	27.3	111.6	i	0.96
COC(=O)c1sc2nc(C)cc(C)c2c1N	/	103.3	7.0	35.3	159.5	i	1.09
CC(C)c1nc(-c2ccc([N+](=O)[O-])cc2)cs1	-0.7	101.1	17.0	32.4	136.0	i	1
CC(=O)c1sc(NC(=O)C2=NN(c3ccccc3)C(=O)CC2)nc1C	/	102.1	-0.8	/	/	i	0.9
Cc1nn(Cc2ccccc2)c(C)c1NC(=O)CSc1nc2sc3c(c2c(=O)n1C)CCC3	-2.1	/	-6.3	20.0	105.2	i	0.97
CCOC(=O)C1(Cc2ccc(OC)cc2)CCN(C(=O)CCc2cccnc2)CC1	/	109.1	-4.7	/	/	i	1
Cc1ccc(C(=O)OCCn2cc(C#N)c(=O)[nH]c2=O)cc1	/	97.9	-1.7	/	/	i	1.52
Cn1c(=O)n(C)c2cc([N+](=O)[O-])c(N3CCN(C(=O)c4cccc(F)c4)CC3)cc21	/	103.1	-1.6	20.0	111.2	i	1.11
CCc1nnc2cccc(Cl)n12	/	97.0	-7.4	-84.6	89.7	i	0.99
Cn1c(SCc2cccnc2)nnc1-c1c[nH]c2ccccc12	-2.8	99.6	-15.1	/	/	i	0.71
CC(=O)N1CCN=C1SCc1ccccc1	-3.3	87.5	14.8	/	/	i	1.12
CC(C)c1ccc(NC(=O)c2n[nH]c(=O)c3ccccc23)cc1	/	101.3	1.1	/	/	i	0.76

The list goes on.
SMILES	GALR2 ag	RGS16-Gao	PKD1 inh	INS promoter inh	INS promoter inh cell count	HSV augment	HSV augment primary fold
CCOCCCNC(=O)CN1C(=O)C(CC)Oc2ccccc21 (configuration not stated)	0.2	100.8	-4.8	-76.9	81.2	/	/
COc1ccccc1NC(=O)C(=O)NCc1ccccc1Cl	-0.1	105.6	-15.1	20.0	125.8	i	0.92
N#Cc1c(NC(=O)C2CC2)sc2c1CCCCC2	-1.6	94.2	-8.7	-35.7	110.0	i	0.99
CCN(CC)S(=O)(=O)c1cc(C(=O)Nc2ccccn2)ccc1C	-3.8	102.5	2.4	-309.1	42.6	i	0.82
Cc1cccc(NC2SC(=O)N(CC(=O)O)C2=O)c1 (configuration not stated)	-2.6	103.7	2.2	-62.5	64.5	i	0.98
Cc1ccc2cccc(N)c2n1	/	102.6	-5.1	-80.0	118.9	i	1.04
CCCN1CCC(NC(=O)CCc2nnc(Cc3cc(OC)ccc3OC)o2)CC1	/	107.0	5.7	25.0	117.8	i	0.96
O=C(Cc1ccc(S(=O)(=O)N2CCOCC2)s1)Nc1ccccc1Br	/	100.5	/	/	/	i	0.95
COc1ccccc1C(=O)Oc1cc(N)n(S(=O)(=O)c2ccc(C)cc2)n1	0.3	100.7	-4.6	78.6*	81.3*	i	0.83
COc1ccc(/C=N/Nc2cc(C)nc(N3CCOCC3)n2)cc1OC	/	102.2	/	/	/	i	1.01
CCOC(=O)C1=C(O)/C(=C/c2cc(OC)c(O)c(OC)c2)SC1=Nc1ccc(OC)cc1	7.3*	44.5	3.3	37.5	177.4	?	/
CCOc1cc(/C=C/C(=O)NCCc2ccc(S(N)(=O)=O)cc2)ccc1OCC(C)C	/	98.9	/	/	/	i	0.8
Cc1ccc(-c2cc3ccccc3nc2N2CCCC2)cc1	-1.7	102.1	-11.2	28.1	145.0	i	0.91
NCCCC[C@H]1CNC(=O)C(=O)N1CC1CCCCC1	/	101.3	/	/	/	i	0.84
COc1ccc(-c2cc(C(=O)Oc3ccc([N+](=O)[O-])cc3)c3ccccc3n2)cc1	-2.2	95.3	3.9	28.1	67.8	i	0.96
CC1CCCC(NC(=O)c2n[nH]c(=O)c3ccccc23)C1C (configuration not stated)	-0.2	108.7	2.2	/	/	i	0.98
C=CCNC(=O)Nc1ccc(F)cc1F	/	107.5	0.4	/	/	i	0.98
CC1(C)CC(=O)C2=C(C1)N(CCN1CCOCC1)C1=C(C(=O)CC(C)(C)C1)C2c1ccc(Cl)cc1	/	97.2	/	/	/	i	1.22
O=C(O)CC12CC3CC(C1)CC(n1ncc(NCc4ccccc4)c(Cl)c1=O)(C3)C2	/	95.4	/	/	/	i	1.17
COc1ccc(C)cc1NC(=O)Cn1cnc2sc(C)c(S(=O)(=O)N3CCOCC3)c2c1=O	-1.4	99.1	-10.9	26.3	63.5	i	0.83
CCC(CC)c1nnc(NC(=O)CCN2C(=O)c3ccccc3C2=O)s1	-1.7	105.0	-15.6	-20.6	175.3	i	0.76
O=C(CNC(=O)c1cccs1)NCC(=O)OCc1ccc(F)cc1	/	57.9	-1.0	/	/	i	1.03
